HCMV UL50-53 inh – inhibitors of HCMV UL50-UL53 interaction, biochemical, HTRF; HCMV UL50-UL53 nuclear egress complex (human cytomegalovirus); normalized percent inhibition; inhibition, % (test concentration not listed); 190,000 tested, 0.15% active; AID 1918969, 2023;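 active = both replicates at 50% or more, plus weaker picks with an unusually low signal ratio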;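 also: stock transfer was 100 nL into about 20 µL; 0% = negative control wells and 100% = wells with untagged competitor protein; inactives centre near -12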
Sa growth 42C – S. aureus growth inhibition at 42 and 30 °C, primary screen, LtaS inhibitor project, RN4220, two temperatures; OD600, 20 h, 42 °C; active compounds read low; relative growth, % (concentration not given with the values); 170,000 tested, 0.53% active; AID 720641, 2013;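 active = growth at 42 °C up to 50% and 20 or more points under that at 30 °C, or under 10% at both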;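 also: 300 nL library stock went into each well; scaled to the means of positive and negative controls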
GIV Gai3 FP – inhibitors of GIV peptide binding to Galpha-i3, primary screen, biochemical, fluorescence polarization, FITC-GIV GBA peptide, rat Galphai3 | Guanine nucleotide-binding protein G(i) subunit alpha-3 (Rattus norvegicus), P08753 | 90 min; active compounds read low; scaled: aluminum fluoride 0%, vehicle 100% | percent of control (FP), % (test concentration not listed) | 210,000 tested, 0.42% active;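 active = replicate mean at 85% of control or lower, very high polarization wells dropped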;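 also: lower values mean more displacement of the GIV peptide from Galpha-i3; wells of about 15 µL received 100 nL stock; the first replicate is given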
Target sequence (P08753 whole entry, looked up): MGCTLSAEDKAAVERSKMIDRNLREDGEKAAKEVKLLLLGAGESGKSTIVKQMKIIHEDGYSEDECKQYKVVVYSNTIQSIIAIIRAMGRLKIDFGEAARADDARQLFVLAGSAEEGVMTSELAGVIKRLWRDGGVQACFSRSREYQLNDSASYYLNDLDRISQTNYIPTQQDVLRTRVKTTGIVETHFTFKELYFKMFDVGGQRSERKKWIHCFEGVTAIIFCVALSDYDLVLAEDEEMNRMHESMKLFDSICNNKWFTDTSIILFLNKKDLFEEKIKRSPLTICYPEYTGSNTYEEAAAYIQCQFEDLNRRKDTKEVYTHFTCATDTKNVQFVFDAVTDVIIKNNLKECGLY
Sa growth 42C second temp – also measured in Sa growth 42C; calls as there; relative growth, %; measured here: growth at 30 °C;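 optical density after 20 h as mean of two plates; 100% = untreated growth and lower means inhibition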
Active calls of the source: *; . = not tested or not shown; & = joins results of further samples.

SMILES	HCMV UL50-53 inh	Sa growth 42C	Sa growth 42C second temp	GIV Gai3 FP
CC(C)C(=O)N1c2nc(C(=O)N3CCOCC3)nn2C2(CCCCC2)[C@@H]2CCCC[C@@H]21	-21	.	.	105
COc1ccc(CCNc2ncnc3onc(C)c23)c(OC)c1	.	102	100	110
COc1ccc(C(CNC(=O)c2ccc(F)cc2)N2CCCC2)cc1 (stereo not given)	-3	78	89	111
CCCCCCCn1c(CN2CCOCC2)nc2ccccc21	12	.	.	104
O=c1c(-c2nc3ccccc3[nH]2)coc2ccc(Cl)cc12	-13	24	17	.
O=C(Nc1cccc(Cl)c1)N1CCC(n2cnc3cccnc32)CC1	19	.	.	100
O=C(CSc1ccc(-c2cccs2)nn1)N1CCc2ccccc21	.	90	87	100
COc1cc(C)c(COc2ncnc3ccccc23)cc1OC	17	87	100	.
CN(C)S(=O)(=O)c1ccc(-c2nc(C#N)c(N3CCCC3)o2)cc1	6	.	.	101
COc1ccc(C2C3=C(CC(c4ccccc4)CC3=O)Nc3onc(C)c32)cc1OC (stereo not given)	-2	.	.	105
O=C(Nc1nn2cnnc2s1)c1ccncc1	-28	93	91	.
CCOC(=O)COc1ccc2c3c(c(=O)oc2c1C)CCC3	6	94	95	109
Cc1nn(CC(=O)NCc2ccccc2Cl)c(=O)c2nn(-c3ccccc3)c(C)c12	-2	107	98	112&104
CCn1c(=O)c2cc(C(=O)N(C)c3cc(Cl)ccc3C)sc2c2ccccc21	.	102	91	98
CCN(C(=O)COc1ccc2ccc(=O)oc2c1)C1CCCCC1	-29	107	83	.
O=C(O)c1cn(-c2ccccc2)c(=O)c2ccccc12	-36	.	.	102
Cc1ccc(N2C(=O)N(CC(=O)C(C)(C)C)c3ccccc3S2(=O)=O)cc1C	.	105	113	104
COC(=O)C1=C(C)NC2=C(C(=O)CC(c3ccc(OC)c(OC)c3)C2)C1c1cccc(Cl)c1Cl (stereo not given)	-12	.	.	100
COc1cc(C=C2C(=O)NC(=S)NC2=O)cc(Cl)c1OCCOc1ccc(C)c(C)c1	-14	.	.	95
COc1cccc(-n2cc(C(=O)N(C)C3CCCCC3)c3ccccc3c2=O)c1	-23	72	85	101
COc1ccc(CNC(=O)CCn2c(=O)[nH]c3ccccc3c2=O)cc1	.	105	78	101
CCOC(=O)CCN1C(=O)c2ccccc2S1(=O)=O	-9	.	.	105
O=P1(c2ccccc2)C=CC(O)C1 (stereo not given)	-22	95	90	.
CCCN(C(=O)CSc1nnc(-c2ccco2)o1)C1=CCCCC1	-12	75	94	.

Given as a markdown table: 6 of the compounds above.
| Structure | HCMV UL50-53 inh | Sa growth 42C | Sa growth 42C second temp | GIV Gai3 FP |
| --- | --- | --- | --- | --- |
| CCCCCCCn1c(CN2CCOCC2)nc2ccccc21 | 12 | . | . | 104 |
| O=P1(c2ccccc2)C=CC(O)C1 (stereo not given) | -22 | 95 | 90 | . |
| O=C(Nc1cccc(Cl)c1)N1CCC(n2cnc3cccnc32)CC1 | 19 | . | . | 100 |
| COc1cccc(-n2cc(C(=O)N(C)C3CCCCC3)c3ccccc3c2=O)c1 | -23 | 72 | 85 | 101 |
| COc1ccc(CCNc2ncnc3onc(C)c23)c(OC)c1 | . | 102 | 100 | 110 |
| CCCN(C(=O)CSc1nnc(-c2ccco2)o1)C1=CCCCC1 | -12 | 75 | 94 | . |

The results go on:
SMILES	HCMV UL50-53 inh	Sa growth 42C	Sa growth 42C second temp	GIV Gai3 FP
CC1=NN(C(=O)c2ccccc2Br)C(O)(c2ccccc2)C1 (stereo not given)	9	.	.	106
CC1Cc2ccccc2N1C(=O)COC(=O)/C=C/c1ccco1 (stereo not given)	-19	93	96	.
O=C(Nc1cccnc1Cl)C1CSC(c2ccncc2)=N1 (stereo not given)	.	93	82	104
CC(C)/C=N/NC(=O)c1cccc(N2CCCC2=O)c1	-10	126	99	100
COc1ccc(N2CC(NC(=O)c3cc4ccccc4o3)CC2=O)cc1OC (stereo not given)	.	93	88	99&102
CCOc1ccc(-c2nonc2NC(=O)c2oc3cc(Br)ccc3c2C)cc1	10	108	97	95
CCOc1ccc(C2Nc3c(C)cccc3-c3cc(C)nn32)cc1 (stereo not given)	15	110	92	103
CCc1cc(-c2oncc2-c2ccc(Br)cc2)c(O)cc1OC	-2	103	104	98
NNC(=O)C1=CC(C(=O)c2cccs2)=NN(c2ccccc2)C1C(=O)NN (stereo not given)	-24	118	101	122
CCOC(=O)c1cc2c(=O)n3ccccc3nc2n(Cc2ccco2)c1=NC(=O)c1ccccc1	-21	111	95	104
COc1ccc(CNC(=O)C2CSC(=O)C2)cc1 (stereo not given)	.	96	92	109
CCCCCn1c(C)c2c(OCC)cccc(=O)c2c1C	-43	47	34	120

Full records, looked up by structure:
CCOc1ccc(-c2nonc2NC(=O)c2oc3cc(Br)ccc3c2C)cc1 in the list: HCMV UL50-53 inh = 10; Sa growth 42C = 108; Sa growth 42C second temp = 97; GIV Gai3 FP = 95
CC(C)/C=N/NC(=O)c1cccc(N2CCCC2=O)c1 in the list: HCMV UL50-53 inh = -10; Sa growth 42C = 126; Sa growth 42C second temp = 99; GIV Gai3 FP = 100

The list goes on.
SMILES	HCMV UL50-53 inh	Sa growth 42C	Sa growth 42C second temp	GIV Gai3 FP
CC1(C)C(=O)Nc2ccccc2N1C(=O)COC(=O)c1ccc(S(=O)(=O)C(F)F)cc1	-7	90	96	.
Cc1c(C(=O)N2CCC(C(N)=O)(N3CCCCC3)CC2)sc2ncnc(N3CCN(c4ccccn4)CC3)c12	-10	.	.	107
O=C(NCc1noc2ccccc12)N1CCN(c2ccccc2F)CC1	.	86	84	102
CNS(=O)(=O)c1cn(CC(=O)Nc2ccc(C(C)=O)cc2)cc1S(=O)(=O)NC	.	97	85	106
COc1ccc(/C=C/C(=O)Nc2cccnc2)cc1OC	-75	74	104	.
O=C(CSC1=Nc2ccccc2C2=NC(Cc3ccccc3)C(=O)N12)Nc1ccccc1 (stereo not given)	.	107	83	105
CCC1CSC(Nc2ccc(OC)cc2)=N1 (stereo not given)	-2&-18	109&83	88&89	101
CCN(C(=O)Cn1c(SCC(=O)NCc2ccccc2)nc2ccccc21)c1cccc(C)c1	.	110	80	103
COc1ccc(CNC(=O)c2cnc3sc(N4CCCC4)nn3c2=O)c(OC)c1	.	115	94	106
COC(=O)c1ccccc1NC(=O)Cn1c2ncccc2c(=O)n1-c1ccccc1	5	.	.	106
Cc1cc(C(=O)N(C)C2CCCCC2)on1	4	94	97	104
COc1cccc(CNC(=O)Cc2csc3ccccc23)c1OC	-4	109	105	101
Cc1ccc(CC(C#N)Sc2nccn2C)cc1 (stereo not given)	-1	112	96	.
Nc1nc2c(s1)c(=O)[nH]c(=O)n2-c1ccc(Cl)cc1	-35	94	85	99
CCN(CC)CCSc1nc2ccc(OC)cc2[nH]1	-9	108	106	100
COc1ccc(OCc2nc(CCN(C)C(=O)COc3ccc(F)cc3)no2)cc1	7	.	.	108
Cc1nc2c(ccc3nc(Nc4nc5cc6c(cc5s4)OCCO6)sc32)s1	-5	105	97	98
COCCN1Cc2cccc(C(=O)N(CC(=O)NC3CCCCC3)Cc3ccc4c(c3)OCO4)c2C1=O	1	130	95	103
CC1CC(C)CN(C(=O)COC(=O)Cc2ccc(Cl)cc2)C1 (stereo not given)	-14	113	89	.
COc1ccc(-c2nc(SCC(=O)Nc3ccc4c(c3)OCCO4)c(-c3ccc(F)cc3)[nH]2)cc1OC	-15	98	88	98
Cc1nn2c(=O)cc(COC(=O)COc3ccc(F)cc3)nc2s1	.	80	88	101
COc1ccc(NCC(=O)/C(C#N)=C(\C)Nc2ccc(OC)cc2)cc1	-21	78	87	.
CC(=O)N(CCN(C)C)c1nc2c(F)cccc2s1	-4	97	90	97
COC(=O)c1cnn2c(C(F)(F)F)cc(-c3ccc(F)cc3)nc12	-65	.	.	100
NC1CCN(Cc2cccc(F)c2)CC1	-23	107	75	103
Oc1ccc(/C=N\n2cnnc2)cc1	-16	.	.	101
CCOc1ccc(-c2cn3c(n2)sc2cc(C(=O)NCCc4ccc(OC)c(OC)c4)ccc23)cc1	13	96	55	100
CCN(Cc1ccccc1)S(=O)(=O)c1ccc2c(c1)oc(=O)n2C	.	97	91	103
Cc1cc(C(=O)c2cc3cc(Cl)ccc3o2)ccc1Cl	-6	103	95	105
O=C(NCC1CCCO1)c1cn(-c2ccccc2)nc1-c1ccc(Cl)cc1 (stereo not given)	-25	121	82	.
O=S(=O)(c1cccs1)N1CCCC2C=CC=CC21 (stereo not given)	-21	104	79	107
COc1cc(-c2nnc(SCC(=O)c3ccc(CC(=O)N4CCOCC4)s3)o2)cc(OC)c1OC	-16	96	63	.
CC(C)(C)c1cc(NC(=O)C2COc3ccccc3O2)n[nH]1 (stereo not given)	0	119	96	103
O=c1cc(-c2ccccc2)nc2cc(-c3cccs3)[nH]n12	-8	99	95	101
Cc1ccc(C(=O)O)cc1-n1c(C)ccc1C	-3	86	78	67*
CC(=O)OC(OC(C)=O)C12C=CC(O1)C1C(=O)N(c3ccccc3-c3ccccc3)C(=O)C12 (stereo not given)	-6	99	86	100
O=c1nc(SCc2ccc(Cl)cc2)c2c(n1Cc1ccccc1)CCC2	-17	.	.	103
CCN(Cc1ccccc1)C(=O)Cn1c(=O)n(-c2ccc(Cl)cc2)c(=O)c2c(C)c(C(=O)N(C)C)sc21	.	100	81	102
COCCNC(=O)c1ccc(CS(=O)(=O)c2c(Cl)cccc2Cl)o1	7	94	91	113
Cc1ccc2c(=O)c(C(=O)c3ccccc3)cn(CC(=O)NCc3ccccc3)c2n1	.	95	82	114
O=C(C(Sc1ccccc1)c1ccc(Br)cc1)N1CCOCC1 (stereo not given)	-4	103	90	.
CCOc1ccc(-c2nnc(SCC(=O)Nc3cc(F)ccc3F)o2)cc1	-5	102	74	101
O=C(Nc1ccc(OCc2cc(=O)n3ccccc3n2)cc1)c1ccccc1Cl	.	88	90	98
O=C(NCc1noc(C2CCCC2)n1)C1CC1	2	.	.	100
O=C(Cn1cc(SCc2ccc(C(F)(F)F)cc2)c2ccccc21)N1CCCC1	.	124	124	105
COc1ccc(-c2coc3cc4oc(=O)c5c(c4cc23)CCCCC5)cc1	.	99	99	100
O=C(COCc1cc(-c2ccco2)on1)N1CCCCC1	-50	103	84	110
O=C(CSc1ncnc2ccccc12)N1N=C2/C(=C/c3ccco3)CCCC2C1c1ccco1 (stereo not given)	-14	90	100	.

In the list so far, these contain a CF3 group:
SMILES	HCMV UL50-53 inh	Sa growth 42C	Sa growth 42C second temp	GIV Gai3 FP
COC(=O)c1cnn2c(C(F)(F)F)cc(-c3ccc(F)cc3)nc12	-65	.	.	100
O=C(Cn1cc(SCc2ccc(C(F)(F)F)cc2)c2ccccc21)N1CCCC1	.	124	124	105

Remaining list, next part
SMILES	HCMV UL50-53 inh	Sa growth 42C	Sa growth 42C second temp	GIV Gai3 FP
O=C(Nc1cccc(NC(=O)c2ccccc2F)c1)c1ccccc1	-10	106	95	106
Cc1cccc(N2CCN(C(=O)c3ccc4c(c3)c(C)c(C)n4C)CC2C)c1 (stereo not given)	.	63	38	114
CC1CCC(C(C)C)C(N(Cc2ccccc2)C(=O)c2cccs2)C1 (stereo not given)	-33	101	84	102
NCCc1nc(-c2ccccc2)no1	-1	86	92	98
COc1ccc(NC(=O)C2CCCN(C(=O)c3cnn(-c4ccccc4)c3-n3cccc3)C2)cc1 (stereo not given)	-20	106	86	101
Cc1cccc(-c2cc(N3CCC(C(=O)N4CCCC4)CC3)ncn2)c1	-35	.	.	104
CCCCn1c(SCC(=O)NC(C)(C)C)nnc1-c1ccncc1	-24	94	92	101
COc1ccc(OCCSc2nc(C)nc3ccccc23)cc1	1	110	84	100
CN1CCc2c(sc3c2CN(C(=O)NC2CCCC2)C(c2ccc(Cl)cc2)c2cccn2-3)C1 (stereo not given)	-23	.	.	111
COc1cccc(NC(=O)Nc2cn(C)c(=O)c3ccccc23)c1	.	90	67	96
Cc1ccc(NC(=O)c2nc(S(C)(=O)=O)ncc2N(Cc2cccc(F)c2)Cc2ccco2)cc1C	-2	95	90	107
CCn1nnc(NC(=O)COc2ccccc2)n1	-9	101	69	103
Cc1ccc(S(=O)(=O)N2CCCC2C(=O)NCCc2nc3ccccc3[nH]2)cc1 (stereo not given)	3	105	77	107
CCOc1ccc(Nc2cc(N(C)C)c3nonc3c2[N+](=O)[O-])cc1	-23	.	.	109
COc1ccc(NC(=O)c2nnn(Cc3ccccc3C)c2N)c(OC)c1	-32	100	87	101
CCOC(=O)CSc1nc(SCC(=O)OCC)c2c3c([nH]c2n1)CCCC3	-4	111	86	107
CNC(=O)CSc1nnc(-c2ccc3c(c2)OCO3)o1	-16	95	91	.
CN(C)c1oc(-c2ccc(S(=O)(=O)N3CCCC3)cc2)nc1C#N	-47	.	.	99
CNc1ncnc2c1ncn2[C@H]1C[C@H](OP(=O)(O)O)[C@@H](COP(=O)(O)O)O1	-22	.	.	102
O=C(CCCOc1ccccc1)Nc1nccs1	-2	120	76	104
CC1CCC(NC(=O)c2ccc3c(c2)N(Cc2ccccc2)C(=O)c2ccccc2S3=O)CC1 (stereo not given)	23	93	99	106
CC(C)(C)c1ccc(-c2nc3sc4c(c3c(=O)o2)CCC4)cc1	-4	.	.	103
Cc1ccc(-c2noc(CCC(=O)Nc3ccc(F)cc3Cl)n2)cc1	4	111	95	106
Cc1cccc2sc(N(CCCN(C)C)C(=O)COc3ccccc3)nc12	.	95	102	104

Source: PubChem BioAssay (ICCB-Longwood Screening Facility, Harvard Medical School)
